# rRNA inh HTS = inhibitors of bacterial rRNA selective over humanized ribosomes; E. coli WT GFP vs humanized-ribosome RFP mutants, fluorescence, 24 h; hits give low values; DMSO median 0, no signal -100; GFP signal change (wild-type ribosome), % (no concentration beside the values); 350,000 compounds, 1.6% hits;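 active = significant combined selectivity score with lowered wild-type GFP, culture density cut under 30%, mutant RFP and density less affected; inactive = any of these conditions unmet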; also: one replicate is shown; some compounds called inactive have numbers as strong as hits
# AF4-AF9 inh = blocks AF4 peptide binding to human AF9; P42568; AlphaScreen, biotin-AF4 peptide binding to FLAG-AF9; inhibition, % at 10 µM; 350,000 compounds, 0.47% hits;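 active = every replicate reaching a set inhibition limit, whatever the replicate mean, cut at about 25% in these data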;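 also: 0% = plate neutral control median and 100% = total signal loss; the record names both 10 and 1 µM as test concentration; the first replicate is given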
# Target sequence (P42568 whole entry, looked up): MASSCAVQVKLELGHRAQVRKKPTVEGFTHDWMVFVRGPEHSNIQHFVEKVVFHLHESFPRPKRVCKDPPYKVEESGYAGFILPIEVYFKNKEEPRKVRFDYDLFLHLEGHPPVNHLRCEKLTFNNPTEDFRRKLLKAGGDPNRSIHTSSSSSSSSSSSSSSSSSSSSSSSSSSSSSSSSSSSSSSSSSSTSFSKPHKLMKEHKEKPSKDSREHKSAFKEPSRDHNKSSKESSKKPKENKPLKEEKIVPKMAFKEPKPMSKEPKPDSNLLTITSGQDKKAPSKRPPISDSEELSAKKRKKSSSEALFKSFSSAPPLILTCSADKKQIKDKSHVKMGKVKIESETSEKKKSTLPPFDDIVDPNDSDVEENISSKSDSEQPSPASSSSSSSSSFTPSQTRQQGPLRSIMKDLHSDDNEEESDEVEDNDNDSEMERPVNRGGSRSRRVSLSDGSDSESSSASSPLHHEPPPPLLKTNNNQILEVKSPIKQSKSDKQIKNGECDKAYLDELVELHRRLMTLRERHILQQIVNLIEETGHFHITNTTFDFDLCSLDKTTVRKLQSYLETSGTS
# rRNA inh HTS OD600 = recorded beside rRNA inh HTS, whose call it bears; OD600 change, %; measured here: OD600 growth;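 optical density of the mix in the first replicate; 0 = DMSO median and -100 = no signal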
# rRNA inh HTS RFP = also measured in rRNA inh HTS; calls as there; RFP signal change, %; measured here: RFP humanized mutant strains;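 first replicate; 0 = DMSO median and -100 = no signal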
# Active calls of the source: *.
no.	Structure	rRNA inh HTS	AF4-AF9 inh	rRNA inh HTS OD600	rRNA inh HTS RFP
1	C[C@H](CO)N1C[C@H](C)[C@@H](CN(C)S(C)(=O)=O)Oc2ncc(C#Cc3cccnc3)cc2C1=O	-0.3	-1.1	5.4	-4.5
2	COC(=O)[C@@]1(Cc2ccc(F)cc2)[C@H]2c3cc(C(=O)N4CCCC4)n(C[C@H](O)CO)c3C[C@H]2CN1C(=O)c1ccccc1	7.7	0.4	-2.1	-5.6
3	C[C@H](CO)N1C[C@H](C)[C@@H](CN(C)C(=O)CN2CCOCC2)Oc2ncc(C#CCN(C)C)cc2C1=O	-3.0	-3.6	-0.2	-1.8
4	Cc1cccnc1C(NC(=O)C1CCN(CCOc2ccc(F)cc2)CC1)c1ccc(F)cc1 (configuration not stated)	-0.8	-5.8	-7.5	-1.5
5	C/C=C/c1cnc2c(c1)C(=O)N([C@@H](C)CO)C[C@@H](C)[C@H](CN(C)C(=O)Nc1ccc(F)cc1)O2	4.6	0.0	-0.4	-6.0
6	Fc1ccc(-c2nc3c(Cl)cc(C(F)(F)F)cn3c2Cc2ccccc2)cc1	4.3	0.7	13.2	-0.4
7	C[C@@H]1CN([C@H](C)CO)C(=O)c2cccc(NC(=O)c3nc4ccccc4s3)c2O[C@@H]1CN(C)C	-1.5	0.5	3.9	0.6
8	COc1ccc(S(=O)(=O)N(C)C[C@H]2OCCCC[C@@H](C)Oc3ccc(NC(=O)Nc4cccc5ccccc45)cc3C(=O)N([C@@H](C)CO)C[C@H]2C)cc1	3.3	-11.0	5.5	0.2
9	Cc1ccc(S(=O)(=O)Nc2ccc3c(c2)C(=O)N([C@@H](C)CO)C[C@@H](C)[C@H](CN(C)S(=O)(=O)c2c(C)noc2C)OCCCC[C@@H](C)O3)cc1	-0.1	-0.4	-2.1	1.4
10	CN(C)C(=O)[C@H]1[C@H](CO)[C@H]2Cn3c(ccc(-c4cccnc4)c3=O)[C@H]2N1Cc1ccccc1F	-2.6	0.3	0.3	1.1
11	O=C(Nc1cc(F)ccc1F)N1CC(=O)N2[C@@H](CO)[C@H](c3ccc(/C=C/c4ccccc4)cc3)[C@@H]2C1	-9.9	9.4	-51.6	19.6
12	Cc1ccc(S(=O)(=O)Nc2ccc3c(c2)C(=O)N([C@H](C)CO)C[C@@H](C)[C@@H](CN(C)S(=O)(=O)c2cn(C)cn2)OCCCC[C@H](C)O3)cc1	0.8	-3.2	-9.6	-2.9
13	C[C@H]1CN([C@@H](C)CO)C(=O)Cc2cc(NC(=O)c3ccncc3)ccc2O[C@H]1CN(C)S(=O)(=O)c1cn(C)cn1	3.3	-4.6	4.0	-2.4
14	O=C(C[C@H]1CC[C@H]2[C@@H](COC[C@@H](O)CN2C(=O)c2cccnc2)O1)NCc1ccc(-c2ccccc2)cc1	-5.5	-2.6	0.2	-0.2
15	c1ccc(COc2cccc(-c3cc4nc(NCc5ccc6c(c5)OCO6)ccn4n3)c2)cc1	7.9	-3.9	10.7	9.0
16	O=C(C1CCCC1)N1CC(=O)N2[C@H](C1)[C@H](c1ccc(Br)cc1)[C@@H]2CO	0.7	-6.1	-0.1	-5.8
17	COc1ccc2c3c([nH]c2c1)[C@@H](CO)N(C)CC31CN(C(=O)NC(C)C)C1	4.9	-1.0	7.5	-3.1
18	C[C@@H]1CN([C@H](C)CO)C(=O)Cc2cc(NC(=O)Nc3ccc(F)cc3)ccc2O[C@H]1CN(C)S(C)(=O)=O	-1.1	1.8	-6.0	-2.7
19	O=C(C[C@@H]1CC[C@@H](NC(=O)c2ccncc2)[C@H](CO)O1)Nc1ccccc1	0.9	-0.2	6.6	-1.6
20	C[C@H]1CN([C@@H](C)CO)C(=O)c2cc(NC(=O)Nc3ccc(F)cc3)ccc2O[C@H]1CN(C)S(=O)(=O)c1cccs1	-1.5	-1.0	-9.1	-0.3

# Quoted at random: 3 compounds from above.
no.	Structure	rRNA inh HTS	AF4-AF9 inh	rRNA inh HTS OD600	rRNA inh HTS RFP
4	Cc1cccnc1C(NC(=O)C1CCN(CCOc2ccc(F)cc2)CC1)c1ccc(F)cc1 (configuration not stated)	-0.8	-5.8	-7.5	-1.5
16	O=C(C1CCCC1)N1CC(=O)N2[C@H](C1)[C@H](c1ccc(Br)cc1)[C@@H]2CO	0.7	-6.1	-0.1	-5.8
6	Fc1ccc(-c2nc3c(Cl)cc(C(F)(F)F)cn3c2Cc2ccccc2)cc1	4.3	0.7	13.2	-0.4

# (list continues)
no.	Structure	rRNA inh HTS	AF4-AF9 inh	rRNA inh HTS OD600	rRNA inh HTS RFP
21	O=C(C[C@@H]1C=C[C@@H](NS(=O)(=O)c2cccc(F)c2)[C@H](CO)O1)N1CCCCC1	-1.1	-0.8	-8.8	0.3
22	CC(=O)N1CCCCN2[C@@H](CO)[C@H](c3ccc(-c4ccncc4)cc3)[C@@H]2C1	6.1	-2.6	19.0	-1.7
23	COc1ccc2c3c(n(C)c2c1)[C@H](CO)N(C(=O)Nc1ccc(F)cc1)CC31CCN(Cc2ccccn2)CC1	2.3	12.6	-2.7	1.4
24	C/C=C/c1ccc([C@H]2[C@@H](CO)N(C(=O)NCCC)[C@H]2CNC(=O)C2CCC2)cc1	-6.6	-1.3	-5.4	4.9
25	CCC(=O)N1CCCCN2[C@H](CO)[C@@H](c3ccc(-c4cccc(C(=O)N(C)C)c4)cc3)[C@@H]2C1	5.2	-4.3	1.5	0.9
26	CCCCCNC(=O)C1C(=O)Nc2ccccc2C(=O)N1c1c(C)cccc1C (configuration not stated)	15.4	-2.5	3.1	0.6
27	CCCNC(=O)Nc1ccc2c(c1)OC[C@@H](C)N(C(=O)c1ccccc1F)C[C@H](C)[C@H](OC)CN(C)C2=O	-1.4	-17.5	10.7	4.4
28	Cc1ccc2nc(-c3ccccc3)c(Cc3ccccn3)n2c1	5.6	1.1	2.1	7.9
29	O=C(C[C@H]1C[C@@H]2c3cc(NC(=O)Nc4ccccc4)ccc3O[C@@H]2[C@H](CO)O1)NCc1ccccn1	-0.6	-1.2	0.3	-3.1
30	C[C@H](CO)N1C[C@H](C)[C@H](CN(C)S(=O)(=O)c2ccc(F)cc2)Oc2ccc(NC(=O)Cn3cnnn3)cc2CC1=O	6.7	1.6	0.4	-1.5
31	C[C@@H]1CN([C@H](C)CO)C(=O)Cc2cc(NC(=O)C3CCCCC3)ccc2O[C@H]1CN(C)C(=O)Nc1ccccc1	2.0	-4.4	14.7	-0.7
32	C[C@@H]1CN([C@H](C)CO)C(=O)c2cccc(NC(=O)Nc3cccc4ccccc34)c2O[C@@H]1CN(C)Cc1ccc(Oc2ccccc2)cc1	-4.2	0.3	7.2	1.9
33	Brc1ccc(-c2ccc3c(n2)CCCN3Cc2ccccn2)cc1	4.1	4.8	-1.4	-0.2
34	C[C@@H]1CN([C@@H](C)CO)C(=O)c2cccc(NS(=O)(=O)c3cccs3)c2O[C@H]1CN(C)Cc1ccncc1	1.3	0.7	-0.2	0.1
35	O=C(NCC(F)(F)F)[C@H]1[C@H](CO)[C@H]2Cn3c(cccc3=O)[C@H]2N1C(=O)C1CC1	2.1	0.4	2.5	-3.8
36	C[C@@H]1CN([C@H](C)CO)C(=O)c2cc(-c3cccc(F)c3)cnc2O[C@@H]1CN(C)C(=O)Nc1ccccc1F	-6.3	-2.9	5.4	-3.6
37	Cc1noc(C)c1NC(=O)N(C)C[C@@H]1Oc2c(NC(=O)CCCCCC(=O)Nc3ccccc3N)cccc2C(=O)N([C@@H](C)CO)C[C@H]1C	2.0	0.4	12.5	1.5
38	C[C@@H]1CN([C@H](C)CO)C(=O)c2cc(NS(=O)(=O)c3cn(C)cn3)ccc2O[C@@H](C)CCCCO[C@H]1CN(C)C(=O)Nc1ccc(C(F)(F)F)cc1	-5.8	4.2	-14.4	1.6
39	NC(Cc1ccc(C(F)(F)F)cc1)c1csc(NC(=O)Nc2ccccc2)n1 (configuration not stated)	-61.2	3.1	-80.2	-9.8
40	CCCNC(=O)N1[C@@H]2CN(C(=O)Nc3cccc(Cl)c3)c3ccccc3[C@@H]2[C@@H]1CO	-56.3	0.6	-78.6	-17.3

# Later entries.
no.	Structure	rRNA inh HTS	AF4-AF9 inh	rRNA inh HTS OD600	rRNA inh HTS RFP
41	COc1ccc(S(=O)(=O)N(C)C[C@H]2OCCCC[C@@H](C)Oc3ccc(NC(=O)NC(C)C)cc3C(=O)N([C@H](C)CO)C[C@H]2C)cc1	0.7	4.8	-7.6	4.8
42	O=C(Nc1cc(F)ccc1F)N1CCCCN2[C@@H](CO)[C@@H](c3ccc(-c4ccccc4)cc3)[C@@H]2C1	-60.9	8.6	-70.6	-11.1
43	CN(C)C(=O)C[C@@H]1CC[C@@H](NC(=O)NC2CCCC2)[C@H](CO)O1	0.8	-2.2	4.2	1.2
44	O=C(C[C@@H]1CC[C@@H](NC(=O)Nc2ccc(C(F)(F)F)cc2)[C@H](CO)O1)NCc1cccc(F)c1	-2.8	0.4	-6.7	2.3
45	C[C@@H]1CCCCO[C@@H](CN(C)Cc2ccc(C(=O)Nc3ccccc3N)cc2)[C@@H](C)CN([C@H](C)CO)C(=O)c2cc(NC(=O)c3ccccc3)ccc2O1	-0.6	-1.4	-4.1	1.0
46	OC[C@H]1O[C@@H](c2nc(-c3nc(-c4ccc(F)cc4)no3)cs2)[C@H](O)[C@@H](O)[C@H]1O	2.8	-3.2	5.0	-1.8
47	Cc1ccc(S(=O)(=O)N[C@@H]2CC[C@@H](CCNC(=O)C3CCCCC3)O[C@@H]2CO)cc1	-3.8	0.3	-2.1	-1.4
48	Cc1ccc(S(=O)(=O)Nc2ccc3c(c2)CC(=O)N([C@H](C)CO)C[C@H](C)[C@H](CN(C)C(=O)Nc2ccccc2)O3)cc1	-1.0	-3.1	2.2	0.2
49	CN(C)C(=O)c1ccc(-c2ccc([C@@H]3[C@H]4CN(C(=O)C5CC5)CCCCN4[C@H]3CO)cc2)cc1	1.0	-0.6	7.5	-3.5
50	CNC[C@@H]1Oc2ncc(C#CC3(O)CCCC3)cc2C(=O)N([C@H](C)CO)C[C@@H]1C	8.1	-0.3	21.5	-3.9
51	O=C(Nc1ccc(F)cc1)N[C@@H]1CC[C@@H](CCn2cc(-c3ccccc3F)nn2)O[C@@H]1CO	1.4	-0.9	-8.2	-1.3
52	COc1ccccc1NC(=O)N1C[C@H]2[C@@H](c3ccccc31)[C@@H](CO)N2Cc1ccc2c(c1)OCO2	-13.2	2.7	-22.0	-2.0
53	Cc1ccc(CN2C(=O)C(Cc3ccccc3)Nc3ncnc(N4CCOCC4)c32)cc1 (configuration not stated)	13.9	3.0	14.8	5.7
54	C[C@H](CO)N1C[C@H](C)[C@H](CN(C)C(=O)Nc2cccc3ccccc23)Oc2ccc(NS(=O)(=O)c3cn(C)cn3)cc2CC1=O	-1.2	-1.8	-5.7	-0.5
55	COc1ccc(NC(=O)N[C@@H]2C=C[C@@H](CC(=O)NC3CCC3)O[C@@H]2CO)cc1	1.5	-2.1	7.4	-2.4
56	COCC(=O)Nc1ccc2c(c1)C(=O)N(C)C[C@@H](OC)[C@@H](C)CN(Cc1cccnc1)[C@@H](C)CO2	0.5	1.7	4.8	-2.5
57	N#C[C@H]1[C@@H](c2ccc(C#CC3(O)CCCC3)cc2)[C@@H](CO)N1C(=O)C1CCCC1	0.3	-21.6	2.0	0.1
58	Cc1ccc(Cn2cc(CN3CC(N4CCCC4)CS3(=O)=O)nn2)cc1 (configuration not stated)	9.9	0.0	7.6	-0.4
59	Cc1nc2cc(Oc3nc(NCCN(C)C)nc4ccsc34)ccc2s1	7.0	10.5	-9.7	13.5
60	C[C@@H]1CN([C@H](C)CO)C(=O)c2cc(C#Cc3cccc(F)c3)cnc2O[C@@H]1CN(C)Cc1ccccn1	3.4	-9.7	5.3	-1.5

# Remaining list, next part:
no.	Structure	rRNA inh HTS	AF4-AF9 inh	rRNA inh HTS OD600	rRNA inh HTS RFP
61	OC[C@H]1[C@@H](c2ccccc2)C2(CN(Cc3cccnc3)C2)N1Cc1ccncc1	0.9	1.1	1.4	-0.5
62	CC(=O)c1cccc(NC(=O)C2(C)Cc3c(-c4cccc(C(N)=O)c4)ccnc3O2)c1 (configuration not stated)	-7.3	-0.1	-0.3	-0.6
63	C[C@H]1CN([C@@H](C)CO)S(=O)(=O)c2ccc(/C=C/c3ccccc3)cc2O[C@@H]1CN(C)C(=O)Nc1ccc(F)cc1	-3.6	3.0	-3.0	2.2
64	CCOC(=O)CCCCCC(=O)Nc1ccc2c(c1)C(=O)N([C@H](C)CO)C[C@@H](C)[C@@H](CN(C)S(=O)(=O)c1ccc(C)cc1)OCCCC[C@H](C)O2	7.5	-0.2	-4.8	6.4
65	C[C@H](CO)N1C[C@H](C)[C@@H](CN(C)Cc2ccc(C(=O)O)cc2)Oc2ccc(NC(=O)Nc3ccccc3)cc2C1=O	3.8	-3.7	11.3	-3.5
66	C[C@H]1CN([C@@H](C)CO)C(=O)Cc2cc(NS(C)(=O)=O)ccc2O[C@@H]1CN(C)C(=O)NC1CCCCC1	2.1	3.7	-2.0	-0.1
67	C[C@@H]1CN([C@@H](C)CO)C(=O)Cc2cc(NS(=O)(=O)c3ccc(Cl)cc3)ccc2O[C@H]1CN(C)CC1CC1	3.3	2.5	8.9	0.7
68	COCC(=O)N1C[C@H](C)[C@@H](OC)CN(C)C(=O)c2ccc(NC(=O)Nc3ccccc3)cc2OC[C@@H]1C	-0.1	-1.2	0.1	3.4
69	Cc1noc(C)c1NC(=O)N(C)C[C@@H]1Oc2c(NC(=O)c3nc4ccccc4s3)cccc2C(=O)N([C@H](C)CO)C[C@H]1C	-1.7	0.1	11.1	1.0
70	CN1C(=O)C(Br)(Br)CC1c1cccnc1 (configuration not stated)	1.9	5.8	18.1	1.6

# Source: PubChem

# An excerpt. The share of hits here may be higher or lower than overall.
